ClpP mod: qHTS Assay for Activators of ClpP; ATP-dependent Clp protease proteolytic subunit (Bacillus subtilis (strain 168)), P80244; actives 1.9% (n = 340,000); Potency, µM (titrated, usually from 57.5 µM), inactives show at the top dose activity change, negative = active; AID 651965, 2013; purified B. subtilis ClpP, FRET peptide cleavage, 20 min; active = well fitted falling curve with a large enough effect; inconclusive = small, poorly fitted or top-dose-only effect; inactive = no such curve, though single readings can be large or run the other way; note: potency is the fitted concentration of half-maximal effect; the source files actives as falling curves though it sought activators and does not explain the sign; nearly all actives have a fitted effect of over 65% in size; many hits overshoot -100%
Target sequence (P80244 whole entry, looked up): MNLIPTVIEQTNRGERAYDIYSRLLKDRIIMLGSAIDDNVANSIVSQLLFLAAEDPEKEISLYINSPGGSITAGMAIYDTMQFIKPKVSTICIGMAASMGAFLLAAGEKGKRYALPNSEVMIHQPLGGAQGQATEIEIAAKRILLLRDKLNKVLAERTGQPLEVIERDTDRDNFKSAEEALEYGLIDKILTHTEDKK
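FRET quenching reversal measured ClpP activation: 10 microg/mL B. subtilis ClpP at pH 8 with the FRET-FV decapeptide, read at 430 nm after 320 nm excitation. The 20-min minus 0-min signal was scaled between DMSO/no-enzyme wells and ADEP (5.8 microM final).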
Sfp PPTase inh: qHTS Assay for Inhibitors of Bacillus subtilis Sfp phosphopantetheinyl transferase (PPTase); Biochemical Sfp PPTase activity, qHTS; AID 1490, 2009; Potency, µM, without a hit: max response, negative = inhibition, usual class: inhibitors; 4'-phosphopantetheinyl transferase ffp (Bacillus subtilis), Q9F4F7; actives 3.5% (n = 310,000); active = well fitted inhibition curve with a large enough effect; inconclusive = small, poorly fitted or top-dose-only effect, or another doubt; inactive = no such curve, though single readings can be large or run the other way;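 note: the enzyme is Sfp with the accession as filed and its product quenches rhodamine fluorescence; potency is the fitted concentration of half-maximal effect; 0% = enzyme reaction without inhibitor and -100% = no enzyme wells; top concentration of the series not given in the record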
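After 15 min at room temperature with compound, 15 nM Sfp received 5 uM rhodamine-CoA plus 12.5 uM BHQ-2-ybbR (50 mM Hepes pH 7.6, 10 mM MgCl2). Rate came from the fluorescence difference over 30 min, ex 525/em 598 nm.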
CtBP-E1A inh: qHTS Assay for Inhibitors of the CtBP/E1A Interaction | AlphaScreen GST-E1A/His-CtBP binding, 1536-well; active compounds read low; control for the full effect not named in the record | activity change, % (test concentration not listed) | CtBP / adenovirus E1A interaction (AlphaScreen) | actives 0.49% (n = 340,000); in the data active means activity change below about -65%; inconclusive means about -30% to -65%; inactive means above about -30%; note: % is set by controls: 0 for no effect and ±100 for the full control effect
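Protein mix (5X: 125 nM each GST-E1A, His-CtBP) was incubated with pinned compound 2 h at 37 deg C in dark, in 50 mM Tris pH 8.0 buffer with 300 mM NaCl. Glutathione donor and nickel acceptor beads followed; AlphaScreen signal read after 1 h.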
gsp ag: qHTS for Agonist of gsp, the Etiologic Mutation Responsible for Fibrous Dysplasia/McCune-Albright Syndrome: qHTS. gsp mutant cells, cAMP HTRF, 30 min; control for the full effect not named in the record. AID 624287, 2012. actives 0.13% (n = 340,000). Potency, µM (titrated, usually from 76.9 µM), for inactives: top-dose activation (cAMP increase), usual class: activators; active = well fitted activation curve with a large enough effect; inconclusive = small, poorly fitted or top-dose-only effect, or another doubt; inactive = no such curve, though single readings can be large or run the other way; cell line not stated here;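 note: phosphodiesterase inhibitor Ro 20-1724 added with compounds to block cAMP breakdown; potency is the fitted concentration of half-maximal effect; nearly all actives have a fitted effect of over 60% in size; about a fifth of the inactives were tested at one dose only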
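Cells in DMEM/10% FBS with G418 were pretreated with compounds in DMSO plus […] (300 uM stock) for 30 min at 37C. cAMP was measured by HTRF (cAMP-d2 plus anti-cAMP antibody-K) after 30 min at room temperature.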
gsp antag: qHTS for Antagonists of gsp, the Etiologic Mutation Responsible for Fibrous Dysplasia/McCune-Albright Syndrome: qHTS | gsp-mutant cells, cAMP HTRF, 30 min; control for the full effect not named in the record | Potency, µM (titrated, usually from 76.9 µM), inactives show top-dose activity change, negative = inhibition, hits mostly inhibitors | actives 0.4% (n = 340,000) | AID 624288, 2012; active = falling curve of any shape with a large fitted effect; inconclusive = falling curve, mostly with a smaller effect; inactive = flat or rising curve; cell line not stated here;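 note: intracellular cAMP measured with PDE inhibitor Ro 20-1724 present during compound exposure; potency is the fitted concentration of half-maximal effect; % is set by controls: 0 for no effect and ±100 for the full control effect; nearly all actives have a fitted effect of over 65% in size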
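HTRF cAMP measurement after 30 min RT detection following 30 min, 37C compound treatment alongside […] (added as 300 uM solution) in G418-selected cells seeded at 2000/well and grown 16–24 h.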
TRPV1 PAM: HTS Assay for Compounds that Act as Potentiators of the Vanilloid Receptor 1. potentiation, % at 8.33 µM. TRPV1-expressing cells, Fluo-8 calcium influx, capsaicin EC20 potentiation; host cell line not named in the record; control for the full effect not named in the record. actives 0.02% (n = 320,000); active means potentiation above 80%; inconclusive means 30% to 80%; inactive means below 30%; note: 0% is about no effect
Target sequence (Q8NER1 whole entry, looked up): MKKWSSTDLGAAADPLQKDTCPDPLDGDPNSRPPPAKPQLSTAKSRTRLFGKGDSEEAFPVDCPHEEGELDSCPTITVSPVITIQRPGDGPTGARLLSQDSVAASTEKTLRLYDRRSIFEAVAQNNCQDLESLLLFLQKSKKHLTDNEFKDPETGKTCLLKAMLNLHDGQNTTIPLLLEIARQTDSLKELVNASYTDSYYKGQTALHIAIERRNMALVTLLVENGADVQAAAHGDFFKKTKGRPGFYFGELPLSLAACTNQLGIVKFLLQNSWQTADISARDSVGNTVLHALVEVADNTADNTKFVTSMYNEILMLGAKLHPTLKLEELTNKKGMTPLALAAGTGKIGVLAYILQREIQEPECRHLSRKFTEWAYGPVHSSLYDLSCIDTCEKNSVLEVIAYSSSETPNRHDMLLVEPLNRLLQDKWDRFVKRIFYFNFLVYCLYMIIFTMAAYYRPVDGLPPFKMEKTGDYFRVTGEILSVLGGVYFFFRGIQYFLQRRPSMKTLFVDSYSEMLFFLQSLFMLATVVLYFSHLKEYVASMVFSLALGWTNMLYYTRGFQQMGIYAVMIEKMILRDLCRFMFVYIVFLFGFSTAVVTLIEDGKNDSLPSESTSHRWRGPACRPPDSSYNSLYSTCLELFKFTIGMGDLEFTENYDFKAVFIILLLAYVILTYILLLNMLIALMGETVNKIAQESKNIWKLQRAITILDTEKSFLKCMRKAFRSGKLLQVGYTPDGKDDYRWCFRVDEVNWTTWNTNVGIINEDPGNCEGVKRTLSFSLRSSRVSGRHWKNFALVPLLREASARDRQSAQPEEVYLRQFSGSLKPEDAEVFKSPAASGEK
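Cells expressing TRPV1 were dye-loaded with Fluo-8 and read kinetically: 10 s baseline, 3 min after compound (agonist portion), then 2 min after EC20 capsaicin (allosteric enhancer portion). Calcium-bound dye fluorescence at 480/520 nm.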
Menin MLL FP FL: qHTS Assay for Inhibitors Targeting the Menin-MLL Interaction in MLL Related Leukemias: Competition With Fluorescein Labeled MLL-derived Peptide. 290,000 tested, under 10 active. Fluorescence polarization, fluorescein-MLL peptide displacement from menin. FP activity change, % at 61.4 µM; inconclusive = falling polarisation curve, or a change in total fluorescence; inactive = total fluorescence flat and polarisation flat or rising; no compound was filed as active; the % refers to the polarisation; negative = inhibition;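 note: % of control where 0% means no effect; inhibitors lower the polarisation; unlabelled MLL peptide was the positive control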
* hit, by the source's call; ? = inconclusive; / = not tested or not shown; & = joins results of further samples; [ ] = another dose, or the depositor's remark.

SMILES	ClpP mod	Sfp PPTase inh	CtBP-E1A inh	gsp ag	gsp antag	TRPV1 PAM	Menin MLL FP FL
COc1cccc(NC(=O)N2CCC(NC(=O)c3ccco3)CC2)c1	/	10%	0	7%	5%	-13	2.1
COc1ccc(C2NC(=O)NC(C)=C2C(=O)OCc2ccc3c(c2)OCO3)cc1OC (centres undefined)	-2.3%	-3%	-5	-1%	5%	-20	0.6
CCOC(=O)C1CCN(C(=O)COc2ccc(Cl)cc2)CC1	-1.3%	-2%	8	3%	7%	-30	1.6
Cc1cccc(N(C)S(=O)(=O)c2c[nH]c3ccc([N+](=O)[O-])cc23)c1	0.9%	-7%	0	-33%[inhibitor]	-17%	1	/
O=C(Nc1ccccc1Cl)NC1(C(=O)NCc2cccnc2)CCCCC1	/	13%	3	-20%	4%	6	1.9
Cc1nn(-c2ccccc2)c(C)c1/C=C/C(=O)OCC(=O)Nc1ccc(C(N)=O)cc1	-4.1%	/	/	?	-2%	-2	/
Cc1cc2c(cc1S(=O)(=O)N(C)c1ccccc1)NC(=O)CO2	/	5%	3	6%	-6%	8	-3.8
O=C(CN1C(=O)NC2(CCc3ccccc32)C1=O)c1ccc2c(c1)OCCO2 (centres undefined)	-15%	-2%	-12	-1%	12%	3	-0.4
CCc1ccc(N(CC(=O)Nc2nc3ccc(C)cc3s2)S(=O)(=O)c2c(C)noc2C)cc1	-6.2%	9%	-3	-10%	-16%	-7	2.2
O=C(Nc1ccc(-c2csc(Nc3ccc(Cl)cc3)n2)cc1)c1cc([N+](=O)[O-])cc(C(F)(F)F)c1	-0.6%	-1%	6	/	5%	-14	0.1
O=C1CCC(C(=O)OC(C(=O)Nc2ccc([N+](=O)[O-])cc2Br)c2ccccc2)=NN1 (centres undefined)	-1.2%	/	-19	26%	-11%	23	/
O=C(NCCC(=O)N1CCN(Cc2c(F)cccc2Cl)CC1)c1ccc(Cl)cc1	-2.7%	/	-19	25%	4%	-18	/
CC1CCCC(NC(=O)COC(=O)c2ccc(N(C)C)cc2)C1C (centres undefined)	-5.4%	-13%	4	17%	-6%	-3	0.5
O=C(NC(Cc1c[nH]c2ccccc12)c1nnc2n1CCCCC2)c1cccs1 (centres undefined)	-0.6%	12%	5	2%	-5%	-3	2.0
CCc1cccc2c(C(=O)COC(=O)c3ccc([N+](=O)[O-])s3)c[nH]c12	-0.6%	2%	-25	7%	-2%	25	2.2
CC(=O)Nc1cccc(NC(=O)COC(=O)C2CC3CCCC(C2)C3=O)c1 (centres undefined)	0.8%	4%	3	-7%	-4%	-9	/
O=C(Nc1ccc(NC(=O)C23CC4CC(CC(C4)C2)C3)cc1)c1cc(F)c(F)cc1Cl	/	1%	-2	6%[15.4 µM]	7%	3	-0.3
COc1cc(OC)c(-c2nnc(-c3ccc(OC)c(OC)c3OC)o2)cc1OC	28µM*	24%	?	?	15%	7	1.3
O=C(O)CC12CC3CC(C1)CC(n1ncc(NCc4ccc(F)cc4)c(Cl)c1=O)(C3)C2	-5.4%	15%	/	-1%	5%	3	-5.5
COC(=O)C1=C(C)NC(=O)C1(NC(=O)c1cccnc1)C(F)(F)F (centres undefined)	-1.4%	-9%	5	-6%[15.4 µM]	10%	3	3.9
CCCNC(=O)CSCc1nc(-c2ccc(SC)cc2)oc1C	/	19%	-16	?	-3%	-25	-0.4
COc1cccc(-n2nnc3c(=O)n(Cc4c(F)cccc4Cl)cnc32)c1	-3.2%	16%	1	1%	10%	-1	-2.7
COc1ccc(-c2nn(CCC#N)cc2C(=O)Nc2cccc(C(=O)O)c2)cc1[N+](=O)[O-]	/	7%	5	?	17%	1	3.5
O=C(O)Cc1ccc(NC(=O)Nc2cccc(Cl)c2)cc1	/	11%	8	1%	-5%	-6	1.7
O=C(O)c1cc(-c2ccc3c(c2)OCO3)nc2ccc(Cl)cc12	-24%	7%	-3	-2%[15.4 µM]	-8%	-13	/
COC(=O)[C@@H]1C[C@@]2(O)[C@@H](O)[C@@H](O)[C@@H](O)C[C@H]2N1Cc1ccc(Cl)cc1	-0.8%	4%&-5%	/	?	9%	?	1.2&-2.6
CC(=O)Nc1ccc(NC(=O)c2c(C)nn(-c3ccccc3)c2Cl)cc1C	/	3%	-1	-2%	-4%	-1	-12
O=C(NN=Cc1ccccc1O)C(O)c1ccccc1 (centres undefined)	/	/	-68*	0%	14%	/	/
C=CCN(c1ccccc1)S(=O)(=O)c1cccc(C(=O)Nc2nnc(SCC)s2)c1	79%	0%	-7	20%	-17%	3	0.6
CCCCNC(=S)Nc1cccc(S(=O)(=O)NC2=NCCC2)c1	0.9%	/	8	5%[15.4 µM]	8%	?	/
COc1ccccc1NC(=O)c1ccc(C(=O)c2ccccc2)o1	-0.2%	2%	-19	-27%	?	-2	-3.4
Cc1ccc(OCC(=O)N2CCN(c3ccc([N+](=O)[O-])c(N4CCOCC4)c3)CC2)cc1	-0.2%	14%	0	14%	?	22	0.6
O=C(NC1CCN(S(=O)(=O)c2cccc([N+](=O)[O-])c2)CC1)C1CCCCC1	/	1%	9	16%[15.4 µM]	14%	1	-1.6
CC(=O)C(Sc1ccc2nnc(-c3ccncc3)n2n1)C(C)=O	-0.8%	?	5	?	-7%	23	3.6
CCOC(=O)C1CCN(C(=O)CC2(CC(=O)O)CCCC2)CC1	/	18%	7	0%[15.4 µM]	0%	0	/
COc1ccc(CCNC(=O)CSc2nc(C)nc3c2oc2ccccc23)cc1OC	1.3%	4%	5	8%	14%	-6	5.5
CCN1CCN(CC(=O)Nc2ccc(C)cc2C)C(=O)C1=O	2.6%	12%	3	-44%[inhibitor]	4%	6	-1.6
O=S(=O)(c1ccc(-c2csc(-c3cccnc3)n2)cc1)N1CCOCC1	/	0%	/	-2%[15.4 µM]	-1%	-10	0.1
CC1CCCC(NC(=O)COC(=O)c2cccc(S(=O)(=O)N3CCCCC3)c2)C1C (centres undefined)	1.3%	/	1	-1%	8%	-16	/
CCOc1ccccc1NC(=O)CCc1nnc2ccc(N3CCC4(CC3)OCCO4)nn12	/	10%	-1	?	-1%	5	-23
O=C(Nc1cc(C(F)(F)F)ccc1-n1cncn1)C1CC1	/	/	4	-12%[15.4 µM]	11%	-1	/
CNC(=O)CSCc1cnn(-c2ccccc2)c1-n1cccc1	0.0%	-7%	-3	23%	-5%	-9	-0.3
CCSC1=C(C#N)C(CC(C)C)C2=C(CCCC2=O)N1 (centres undefined)	-19%	-2%	10	-16%	-16%	-18	7.8
O=C(OCC(=O)c1cccc2ccccc12)c1ccc(CO)cc1	-1.5%	-5%	5	-11%	-22%	1	-0.5
CCOc1cc(CN2CCN(Cc3ccc(C)o3)C(CCO)C2)ccc1OC (centres undefined)	-1.9%	0%	/	-50%	-3%	12	0.5
C[C@H](NC(=O)C1CC(=O)N(c2ccc(F)cc2)C1)C(=O)N1CCCCC1 (some centres undefined)	-4.9%	9%	-2	-11%	13%	-13	-0.1
COc1ccc(NC(=O)CN(C)C(=O)/C=C/c2ccc(OCc3ccccc3)cc2)cc1	28µM*	27%	1	8%[15.4 µM]	2%	-7	1.9
CCCCC(=O)Nc1nnc(SCC(=O)NC2CCCC2)s1	-0.2%	13%	-2	0%	14%	0	-1.4
Cc1ccc(NC(=O)NCCSc2ccc(C)cc2)cc1	0.8%	15%	-5	?	-8%	-15	0.7
CCCNC(=O)CCC(NS(=O)(=O)c1ccc(C)cc1)C(=O)NCCC (centres undefined)	0.1%	15%	9	-2%	5%	6	1.2

Two entries from above, with bars between the fields.
Compound | ClpP mod | Sfp PPTase inh | CtBP-E1A inh | gsp ag | gsp antag | TRPV1 PAM | Menin MLL FP FL
CCCCC(=O)Nc1nnc(SCC(=O)NC2CCCC2)s1 | -0.2% | 13% | -2 | 0% | 14% | 0 | -1.4
C[C@H](NC(=O)C1CC(=O)N(c2ccc(F)cc2)C1)C(=O)N1CCCCC1 (some centres undefined) | -4.9% | 9% | -2 | -11% | 13% | -13 | -0.1

Next part.
SMILES	ClpP mod	Sfp PPTase inh	CtBP-E1A inh	gsp ag	gsp antag	TRPV1 PAM	Menin MLL FP FL
Cc1cccc(C)c1NC(=O)Cn1cc(C=O)c2ccccc21	0.3%	14%	0	9%	5%	-1	0.0
NC(=O)c1cn(-c2ccccc2)nc1-c1cc2ccccc2oc1=O	?	19%	1	-11%	-3%	7	-0.5
COc1cccc(COC(=O)c2ccc3c(c2)NC(=O)C(C)S3)c1OC (centres undefined)	-2.1%	/	-22	-6%[15.4 µM]	-13%	28	/
O=C(NCC1COCCO1)c1cc(COc2c(F)cccc2F)on1 (centres undefined)	-3.6%	-1%	0	-4%	6%	8	/
CCC(=O)Nc1ccc(Cl)c(NC(=S)NC(=O)COc2ccc(Cl)cc2)c1	1.5%	6%	6	-20%	2%	7	/
CCOc1ccc(CC(=O)NNC(=S)NC)cc1	/	5%	-1	2%[15.4 µM]	-5%	?	0.0
C#CCOCCOCCOCCNc1nc(N2CCOCC2)nc(N2CCN(C(=O)[C@H](CCCCN)n3cc(CN)nn3)CC2)n1	0.1%	/	3	/	2%	/	/
CCOC(=O)C[C@H]1c2ccccc2S(=O)(=O)N1Cc1cc(OC)c(OC)c(OC)c1	-0.4%&-0.7%	/	-3	/	-5%	/	/
COc1ccc(NC(=O)Cn2cnc3c(cnn3-c3ccc(C)c(C)c3)c2=O)c(OC)c1	?	4%	6	-81%[inhibitor]	7%	-8	3.7
Cc1oc2ccc(OCC(N)=O)cc2c1C(=O)OC(C)C	-8.9%	8%	-6	-4%	-1%	-6	-1.1
O=C(Nc1ccc2c(c1)C(=O)OC2)Nc1cccc2ccccc12	/	9%	/	0%[15.4 µM]	4%	-6	0.5
COCCC(=O)N1CCCC(N2CCN(c3ccc(F)cc3)CC2)C1 (centres undefined)	/	17%	8	?	-2%	4	2.6

Source: PubChem (National Center for Advancing Translational Sciences (NCATS))
